Compound activity from PubChem.
AID504770 – growth inhibitors of E. coli YBA685 in a screen for V. cholerae RctB (chromosome II replication) inhibitors. E. coli YBA685 rctB-dependent plasmid, OD600 growth, 3 h; stronger effect = lower value. z-score (concentration not given with the values). 130,000 tested, 0.27% active;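 active means z-score under -2 on both plates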;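 further: wells of about 30 µL received 100 nL stock; score is relative to mean and SD of the test wells; the first replicate is given; strong numbers were not always called active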
Ba CapD inh – blocks the Bacillus anthracis CapD enzyme; AID 492967; z-score (test concentration not listed); purified CapD enzyme, fluorescence intensity read-out; stronger effect = lower value; some hits fall short of the stated cut; 140,000 tested, 0.23% active;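 active means z-score under -4 in either of two replicates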;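 further: stock transfer was 100 nL into about 40 µL; score is relative to mean and spread of the plate; one replicate is shown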
* marks the source's active call; other numbers are inactive results; . = not tested or not shown.

The opening 14 records as a preview:
SMILES | AID504770 | Ba CapD inh
Nc1nc(NC(=S)NC2CCS(=O)(=O)C2)n[nH]1 (stereo not given) | -0.15 | .
COc1cc2c(cc1OC)C1=C(C#N)CCC(=NC(=O)c3ccccc3F)N1CC2 | -1.15 | -1.94
O=C(NCCCN1CCCC1)c1ccc(CS(=O)c2ccccc2)o1 (stereo not given) | -1.05 | 29
O=C(CSCc1nc2sc3c(c2c(=O)[nH]1)CCC3)Nc1ccc(-c2nnc3n2CCCCC3)cc1 | -0.1 | .
CCOC(=O)c1ccc(Cn2c3ccccc3c3nn4cc(-c5cc(C(C)(C)C)cc6c5CCC6(C)C)nc4nc32)o1 | . | -0.305
C=CCSc1nc(N2CCOCC2)c2c(c1C#N)CC(C)(C)OC2 | . | -0.37
CC1(C)OC(=O)C(C23CC4CC(CC(C4)C2)C3)C(=O)O1 | -0.65 | .
CC(C)(C)C(=O)Nc1cccc(C(F)(F)F)c1C(=O)O | 0.5 | -0.865
COc1ccc(NC(=S)NNC(=NS(=O)(=O)c2ccccc2)NNC(=S)Nc2ccc(OC)cc2)cc1 | . | 0.415
O=C(Nc1ccc(-c2nc3ccccc3o2)cc1)c1cccc(Cl)c1Cl | . | 62.5
CC1=CC(C)=N/C1=C/c1c(O)[nH]c(=O)[nH]c1=O | -0.3 | -2.82
CC1=CC(C)(C)N(C(=O)CN2C(=O)c3ccccc3C2=O)c2ccc(C)cc21 | 0.45 | 0.36
Cc1ccc(NC(=O)c2ccccc2-c2cc(C)no2)cc1 | 0.05 | 0.885
CC1=C(c2ccc(C)cc2)S(=O)(=O)N(CC(=O)N2CCN(c3ccccc3)CC2)C1=O | 0.05 | 0.21

Main list, from the start:
SMILES | AID504770 | Ba CapD inh
Nc1nc(NC(=S)NC2CCS(=O)(=O)C2)n[nH]1 (stereo not given) | -0.15 | .
COc1cc2c(cc1OC)C1=C(C#N)CCC(=NC(=O)c3ccccc3F)N1CC2 | -1.15 | -1.94
O=C(NCCCN1CCCC1)c1ccc(CS(=O)c2ccccc2)o1 (stereo not given) | -1.05 | 29
O=C(CSCc1nc2sc3c(c2c(=O)[nH]1)CCC3)Nc1ccc(-c2nnc3n2CCCCC3)cc1 | -0.1 | .
CCOC(=O)c1ccc(Cn2c3ccccc3c3nn4cc(-c5cc(C(C)(C)C)cc6c5CCC6(C)C)nc4nc32)o1 | . | -0.305
C=CCSc1nc(N2CCOCC2)c2c(c1C#N)CC(C)(C)OC2 | . | -0.37
CC1(C)OC(=O)C(C23CC4CC(CC(C4)C2)C3)C(=O)O1 | -0.65 | .
CC(C)(C)C(=O)Nc1cccc(C(F)(F)F)c1C(=O)O | 0.5 | -0.865
COc1ccc(NC(=S)NNC(=NS(=O)(=O)c2ccccc2)NNC(=S)Nc2ccc(OC)cc2)cc1 | . | 0.415
O=C(Nc1ccc(-c2nc3ccccc3o2)cc1)c1cccc(Cl)c1Cl | . | 62.5
CC1=CC(C)=N/C1=C/c1c(O)[nH]c(=O)[nH]c1=O | -0.3 | -2.82
CC1=CC(C)(C)N(C(=O)CN2C(=O)c3ccccc3C2=O)c2ccc(C)cc21 | 0.45 | 0.36
Cc1ccc(NC(=O)c2ccccc2-c2cc(C)no2)cc1 | 0.05 | 0.885
CC1=C(c2ccc(C)cc2)S(=O)(=O)N(CC(=O)N2CCN(c3ccccc3)CC2)C1=O | 0.05 | 0.21
C=CCOC(=O)C1=C(C)OC(N)=C(C#N)C1c1ccco1 (stereo not given) | . | -0.325
CCC(=O)Nc1nc(-c2ccccc2)c(C)s1 | 0.5 | .
CC(=O)Oc1c2c(C)[nH]nc2nc2c1c(=O)n(C)c(=O)n2C | -0.65 | 0.005
Cc1cccc(OCC(=O)Nc2ccccc2)c1 | -0.7 | 0.19
CCOc1cccc2sc(NN)nc12 | 2.1 | .
COc1cccc(NC(=O)CN(CC(=O)Nc2cccc(OC)c2)CC2COc3ccccc3O2)c1 (stereo not given) | -1.55 | .
Cc1cc(C)nc(NS(=O)(=O)c2ccc(NC(=O)c3cc([N+](=O)[O-])ccc3Cl)cc2)n1 | . | 0.03
Cc1nc2sc(C(=O)Nc3ccc4ccccc4c3)c(N)c2c(C)c1Cl | . | 1.19
COc1ccc2c(=O)c(-c3cnn(-c4ccccc4)c3)coc2c1 | -0.75 | -0.08
O=C(O)c1ccccc1SC(F)F | -0.5 | .
CCCn1c(SCC(=O)NCC)nc2sc3c(c2c1=O)CCC3 | -0.4 | .
N#CC1(C#N)[C@@H]2C=Cc3ccccc3N2[C@@H](C(=O)c2ccccc2)[C@@H]1c1cccc(Cl)c1 | . | 5.91
CCCCOc1ccc(-c2nc(C=Nc3ccccc3Br)c(O)o2)cc1 | . | -1.11
Cc1nc2ccc(N)cc2s1 | -0.75 | .
CC1(C)CC2(CCO1)OC(=O)CC2C(=O)NCCc1ccccc1 (stereo not given) | 1.35 | -0.03
c1ccc(N=C2SC(=NC3CCCCC3)C3=C2CCCC3)cc1 | 0.1 | -0.3
Cc1ccc(C2C=C(c3ccc(Cl)cc3)Nc3nc(N4C(=O)CCC4=O)nn32)cc1 (stereo not given) | 0.9 | 0.325
O=S(=O)(NCc1ccccc1)c1ccc(-c2cc(C(F)(F)F)on2)s1 | -0.3 | 1.05
CCCc1cc(=O)[nH]c(SCC(=O)NC)n1 | -1 | .
COCCN(CCOc1ccc(S(C)(=O)=O)cc1)C(=O)Nc1ccccc1 | . | -0.225
N[C@@H](Cc1c[nH]c2ccccc12)C(=O)O | . | -0.4
O=C(c1ccccc1)N(c1ccc(Cl)cc1)C1C=CS(=O)(=O)C1 (stereo not given) | 0.25 | 2.42
Fc1ccc(Nc2nc3ccccc3nc2Nc2ccc(F)cc2)cc1 | -0.15 | 0.095
COc1ccc(NC2=NCCCCC2)cc1 | 2.3 | -1.53
CC(=O)N1CCc2c(sc(NC(=O)Cc3ccccc3)c2C(N)=O)C1 | -1.25 | 26.9
N#Cc1cc2[nH]c3ccccc3c2n(-c2ccc([N+](=O)[O-])cc2)c1=O | . | -0.115
O=C(O)c1ccc(NC(=O)C2CC2)cc1 | -0.45 | 0.36
CC(NC(=O)CCC1=NS(=O)(=O)c2ccccc2N1)c1ccc2c(c1)OCCO2 (stereo not given) | 1.3 | 0.845
C/C(=N\NC(=O)C1CC1)c1ccc(C)cc1 | 0.1 | .
Cc1ccc(NC(=S)N(C)/N=C/c2ccccn2)cc1Cl | 1.75 | -2.25
CN1C(=O)/C(=C2/Sc3ccc(Cl)cc3N2C2CCCCC2)SC1=S | . | 1.06
COc1cc(/C=C2\CC(C(C)(C)C)C/C(=C\c3cc(OC)c(OC)c(OC)c3)C2=O)cc(OC)c1OC (stereo not given) | . | -0.015
C[N+]1(Cc2ccccc2)CCCC1c1ccc(N)nc1 (stereo not given) | -0.3 | 0.725
CC1CCN(Cc2ccc(NC(=O)CCc3nc(C4=CCN(C)CC4)no3)cc2)CC1 | -0.5 | 0.925
CCN(CC)c1nc(N(CC)CC)[nH]c(=O)n1 | -1.4 | 0.29
CC1CCCCC1n1c(-c2cccnc2)n[nH]c1=S (stereo not given) | -0.75 | .
Continued:
SMILES | AID504770 | Ba CapD inh
Cc1nc2cc(NC(=O)c3ccc([N+](=O)[O-])cc3)ccc2s1 | . | -0.05
CC(C)(CC(=O)O)CC(=O)N1CCN(Cc2ccc3c(c2)OCO3)CC1 | . | 0.39
COc1ccc(O)c(C(=O)c2cc(C#N)c(=O)n(CC3CCCO3)c2)c1 (stereo not given) | 1.1 | .
O=C(O)c1coc2c1/C(=N/N1CCCCC1)CCC2 | -1 | -0.565
CC(C)NC(=O)CCCN1C(=O)CSc2ncccc21 | -0.5 | 0.27
CCCn1c2ccccc2c2nnc(SC(CC)C(=O)Nc3nc(C)c(C(=O)OCC)s3)nc21 (stereo not given) | -0.1 | -0.34
CCN(C(=O)NCc1ccccc1)C1CCCCC1 | 1.4 | -0.845
COC(=O)c1ccccc1NC(=O)c1cc(OC)cc(OC)c1 | 1.55 | -0.865
COc1cc(Br)cc(C2C3=C(CCCC3=O)N(c3ccc(F)cc3)C3=C2C(=O)CCC3)c1O | -0.4 | 0.45
O=C(NCCO)c1nnc(-c2ccccc2)o1 | -0.5 | 0.03
Cc1ccc(N=c2oc3ccc4ccccc4c3cc2-c2nc3ccccc3s2)cc1C | . | -0.055
COC(=O)/C=C1\SC(=Nc2ccc(C)c(C)c2)N(c2ccc(C)c(C)c2)C1=O | -0.9 | 0.505
Nc1sc2c(c1C(=O)c1ccc(Cl)cc1)CCN(Cc1ccccc1)C2 | 1.6 | 0.9
COc1ccccc1N1CCN(CC(O)COc2ccccc2C(C)(C)C)CC1 (stereo not given) | -1.3 | -0.2
N=C1c2ccccc2CN1c1ccc2c3c(cccc13)C(=O)N2 | -0.6 | .
CC(=NCCc1c[nH]c2ccccc12)c1ccccc1O | -0.65 | -0.135
COc1ccccc1N1CCN(C(=O)C2C3C=CC(O3)C2C(=O)O)CC1 (stereo not given) | -0.25 | 0
Clc1ccc(Nc2nc(Cn3cncn3)nn2-c2ccccc2)cc1 | . | 0.63
C1CN(c2nc(N3CCOCC3)nc(N3CCOCC3)n2)CCO1 | . | 0.01
O=C1NC2(CCN(C(=O)NCc3ccc(F)cc3)CC2)Oc2ccccc21 | 0 | 0.31
O=C(/C=C/c1ccco1)NNC(=O)OCC1COC2(CCCCC2)O1 (stereo not given) | . | -0.14
CCOc1ccc(C2(C)N([O-])C(CC)=C(c3ccccc3)[N+]2=O)cc1 (stereo not given) | -0.3 | .
COc1ccc(N2C(=O)C(N3C(=O)c4ccccc4C3=O)C2c2cccc(OC)c2)cc1 (stereo not given) | . | -0.16
O=C1NC(Nc2nccs2)(C(F)(F)F)C(=O)N1CCc1ccccc1 (stereo not given) | 0.15 | 0.185
O=C(CNCc1ccco1)Nc1ncc(Cc2ccc(Cl)cc2)s1 | 0.05 | .
CCCn1nc(C(=O)NCC)c2ccccc2c1=O | -0.2 | .
Clc1ccc2noc(-c3ccccc3)c2c1 | . | -0.93
CCCn1c(NCc2ccc(OC)cc2)nc2ccccc21 | -0.85 | -1.23
O=C(CSc1nc2c(sc(=S)n2Cc2ccco2)c(=O)n1-c1ccc(F)cc1)NCC1CCCO1 (stereo not given) | . | -1.12
CCOC(=O)Nc1cc(C(F)(F)F)ccc1C(F)(F)F | -2.9 | .
O=C(COC(=O)c1ccc2c(c1)NC(=O)CS2)NCc1cccs1 | -0.3 | .
O=C(CSc1c[nH]c2ccccc12)N1CCCc2ccccc21 | 1.8 | -1.31
Cn1cc(C(=O)c2ccc(Cl)cc2Cl)cc1/C=C(\C#N)c1ccccn1 | . | 0.035
COc1cc(OC)c(C(=O)N2CCCCCCC2)cc1OC | 0.75 | 0.165
NS(=O)(=O)c1ccc(C(=O)N/N=C/c2cc3ccccc3o2)cc1 | . | -0.15
Cc1ccc(N2C(S)=C(C#N)C(=O)NC2c2cccs2)cc1 (stereo not given) | -0.9 | .
CSc1nc(NC(C)(C)C)nc(OCCNS(=O)(=O)c2cc(C)ccc2C)n1 | . | -0.15
COc1ccc(C(=O)C[n+]2ccccc2)cc1 | . | -0.545
O=S(=O)(c1cccc2nsnc12)N1CCN(c2ccccc2)CC1 | 1 | -0.07
Cc1c(C(=O)O)oc2ccc3c(c12)C(=O)CC(C)(C)O3 | -0.15 | 114
Cc1ccc(-n2c(CN)nc3ccccc3c2=O)cc1 | 0.4 | .
CCOC(=O)c1[nH]c2c(c1C)/C(=N/O)CCC2 | -0.05 | -0.06
O=C(CCCCl)Nc1ccccc1N1CCOCC1 | -0.8 | -0.635
CC(C)OC(=O)C1=c2s/c(=C\c3cccnc3)c(=O)n2C(N)=C(C#N)C1c1cccnc1 (stereo not given) | 0.2 | 8.99
Cc1c(C(=O)NCc2ccco2)oc2ccc(S(=O)(=O)N3CCC4(CC3)OCCO4)cc12 | -1.25 | 0.325
O=C(NC1CCSC1=O)c1ccc(Oc2ccc(Cl)cc2Cl)nc1 (stereo not given) | . | -0.22
COc1cc(C=C2C(=O)N(C)C(=O)N(C)C2=O)cc(Cl)c1OCCOc1ccc(C)cc1 | . | -0.24
CC1CCC(=NNC(=S)NCC2CCCO2)CC1 (stereo not given) | -0.9 | .
CCOC(=O)N1CCN(C(=O)Cc2cccc3ccccc23)CC1 | -0.45 | .
CCCC1CN2CCC3=C(CCC3)C2(C)C1 (stereo not given) | -0.3 | -0.895
Further entries.
SMILES | AID504770 | Ba CapD inh
CCOC(=O)c1ccc(SCC(=O)Nc2c(C)cc(C)cc2C)c([N+](=O)[O-])c1 | . | -0.215
O=C(/C=C/c1ccc2c(c1)OCO2)Nc1ccc(Br)cc1 | 0.5 | 0.68
O=C(CSc1nc2c(n1-c1ccccc1)CCCC2)N1CCN(C(=O)c2cccs2)CC1 | 1 | .
O=C(NC1CCCC1)C1CCCN(S(=O)(=O)N2CCCC2)C1 (stereo not given) | -0.15 | -0.67
COc1ccccc1C(=O)CS(=O)(=O)c1ccc(C)cc1 | 0.55 | 3.58
O=C(Nc1ccccc1F)c1ccc(N2CC3CC(C2)c2cccc(=O)n2C3)c(NC(=O)c2cc3ccccc3oc2=O)c1 (stereo not given) | . | -0.695
O/N=C/c1ccccc1Cl | -0.05 | .
Cc1nc2ccc(C(F)(F)F)cc2[nH]1 | -0.4 | 3.25
NN(CCC(=O)NC1CCCCC1)C1=NS(=O)(=O)c2ccccc21 | 0.8 | 0.37
OCC1CC2CC(O)CC(C1)C2 (stereo not given) | 0.25 | -0.27
Cc1oc(-c2ccccc2)cc1C(=O)/C=C/N(C)C | -0.2 | -0.065
CCOc1ccc(NC(=O)CSc2nc(=O)n(CCCN3CCOCC3)c3c2CCCC3)cc1 | -0.75 | .
CCCCC(C)C(=O)N1CCC(C(O)(c2ccccc2)c2ccccc2)CC1 (stereo not given) | . | -0.295
NC(=O)CNC(=O)c1ccc2ccccc2n1 | -0.75 | 0.765
FC(F)C(F)(F)Oc1ccccc1 | 0.05 | .
CCc1ccc2oc3nc(N)c(C#N)cc3c(=O)c2c1 | 0.55 | 6.06
CN(C)c1ccc(C2CC(c3ccc(Br)cc3)=NN2C(=O)CCC(=O)O)cc1 (stereo not given) | . | -0.47
N#Cc1ccc(CON2C(=O)CCC2=O)cc1 | -0.1 | .

A portion of the library (hit frequency here may not be typical).
